High-throughput results deposited in PubChem BioAssay by several laboratories.
PKD1 kinase inh = inhibitors of human PKD1 kinase, biochemical, fluorescence polarization; Serine/threonine-protein kinase D1 (Homo sapiens), Q15139; PKD1 kinase fluorescence polarization assay; inhibition, %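 (about 10 µM by stock and volumes)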; 0.056% of 200,000 active; AID 797, 2007;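 active means inhibition of 50% or more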;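 further: controls were vehicle for no effect and a reference inhibitor for full effect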
HSV replic up = enhancers of HSV replication in host cells, fold increase, host cell viability; AID 1956, 2009; 0.005% of 220,000 active; maximum fold increase; HSV replication augmentation in cells;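 active means peak rise of 1.5-fold or more in the series; tested in PC3 cells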;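 further: first round at 10 µM; read as green reporter fluorescence; hits show the peak of a series up to 25 µM; 1 = signal of infected wells without compound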
RGS16-Gao HTS = modulators of RGS16 binding to Galphao, primary screen, biochemical, human proteins, multiplexed bead flow cytometry. Regulator of G-protein signaling 16 (Homo sapiens) + Guanine nucleotide-binding protein …. bead-based flow cytometry RGS16-Galphao binding, fluorescence; actives lie on both sides. binding response (% of control), % at 10 µM. 0.38% of 220,000 active;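 active means below 25% or above 175%, edge rows of some plates excepted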;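 further: Galphao activated by GDP with aluminum fluoride before binding; 100% = wells without compound and 0% = beads without RGS; some results beyond the cut were filed as inactive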
Target sequence (O15492 whole entry, looked up): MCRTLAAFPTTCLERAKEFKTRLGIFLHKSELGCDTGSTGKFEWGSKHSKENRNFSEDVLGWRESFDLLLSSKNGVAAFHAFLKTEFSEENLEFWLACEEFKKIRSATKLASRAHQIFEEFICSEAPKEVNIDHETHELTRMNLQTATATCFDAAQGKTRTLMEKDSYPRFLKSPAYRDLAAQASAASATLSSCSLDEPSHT
Target sequence (P09471 whole entry, looked up): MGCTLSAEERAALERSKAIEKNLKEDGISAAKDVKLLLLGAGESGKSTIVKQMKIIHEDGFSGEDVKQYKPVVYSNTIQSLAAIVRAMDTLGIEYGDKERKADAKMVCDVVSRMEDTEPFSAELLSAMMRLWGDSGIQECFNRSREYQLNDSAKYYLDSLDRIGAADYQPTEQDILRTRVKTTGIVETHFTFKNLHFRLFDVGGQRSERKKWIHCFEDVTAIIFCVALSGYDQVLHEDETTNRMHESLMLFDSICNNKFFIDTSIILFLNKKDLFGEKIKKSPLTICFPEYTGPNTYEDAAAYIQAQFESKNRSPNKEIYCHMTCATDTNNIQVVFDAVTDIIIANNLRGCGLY
GALR2 agonist = GALR2 receptor agonists, primary screen, cell-based | Galanin receptor type 2 (Homo sapiens), O43603 | 0.48% of 140,000 active | AID 803, 2007 | GALR2-expressing cells, agonist activation read-out | activation, %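 (tested at 5 µM)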;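 active means above mean plus 3 SD of all compounds, about 5% in these data, not always enough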;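 further: 0% = vehicle buffer wells and 100% = reference agonist at full effect; tested in CHO reporter cells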
Target sequence (O43603 whole entry, looked up): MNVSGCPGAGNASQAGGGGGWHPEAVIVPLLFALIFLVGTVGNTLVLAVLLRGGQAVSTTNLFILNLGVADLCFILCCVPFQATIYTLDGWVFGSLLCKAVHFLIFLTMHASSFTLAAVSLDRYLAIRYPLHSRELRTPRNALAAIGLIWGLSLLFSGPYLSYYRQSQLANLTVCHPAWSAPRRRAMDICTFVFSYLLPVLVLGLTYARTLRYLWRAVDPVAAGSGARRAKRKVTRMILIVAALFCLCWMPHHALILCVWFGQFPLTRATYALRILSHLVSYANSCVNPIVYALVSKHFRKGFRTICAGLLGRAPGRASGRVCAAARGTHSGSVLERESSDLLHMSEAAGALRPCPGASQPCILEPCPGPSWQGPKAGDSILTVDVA
INS promoter inh = inhibitors of insulin promoter-driven GFP, primary screen, imaging, TRM-6 cells (human fetal islet line), eGFP reporter, cell count; reporter expression induced with tamoxifen; inhibition, % at 2 µM; 0.9% of 130,000 active; AID 1273, 2008;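 active means inhibition above the mean plus 3 SD, with well images judged a real hit on visual review, cut at about 60% in these data, passing the limit was not always enough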
INS promoter inh cell count = further read-out of INS promoter inh, marked with its call; normalized cell count, %; measured here: cell count, toxicity; reference of the scale not given here;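 cells exposed to compound for 48 h; stained nuclei by imaging scaled within each plate; lower means fewer cells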
HSV replic up primary fold = second read-out of HSV replic up, no call of its own (marks repeat the call); fold increase; compound at 10 µM; measured here: primary screen fold increase 10 uM; tested in PC3 cells;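 GFP signal in the first replicate; 1 = infected wells without compound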
* marks the source's active call; other numbers are inactive results; i = inactive; x = no result given; & = joins results of further samples.

SMILES	PKD1 kinase inh	HSV replic up	HSV replic up primary fold	RGS16-Gao HTS	GALR2 agonist	INS promoter inh	INS promoter inh cell count
CCn1nc(C)cc1C(=O)N1CCCC(C(=O)c2ccc3ccccc3c2)C1 (stereo not drawn)	1	i	1.1	108	x	x	x
COc1cccc(S(=O)(=O)NCc2ccc(C(=O)Nc3ccc(C)cc3)cc2)c1	0	i	0.89	105	-3.5	-14	145
COC(=O)C1CCN(CC(=O)Nc2ccccc2Sc2ccccc2)CC1	3	i	1.1	100	x	x	x
C=CCOc1c(Br)cc(/C=N/n2c(CC)n[nH]c2=S)cc1Br	-1	i	0.94	95	1.5	-4	85
COc1ccc(N(CCC#N)C(=O)/C(C#N)=C\c2cccs2)cc1	x	i	0.95	102	x	x	x
COc1ccc(N2C(=O)[C@H]3[C@@H](C2=O)C2c4ccccc4C=NN2[C@H]3C(=O)C(C)(C)C)cc1 (stereo partly drawn)	x	i	1	99	x	x	x
CC(=O)Nc1nnc(CCS(=O)(=O)c2ccc(C)c(C)c2)s1	1	i	1	110	x	4	115
CCOC(=O)c1c(NC(=O)Cc2cccs2)sc(C(=O)NC2CCCC2)c1C	-3	i	0.75	105	-4.1	-3	135
Cc1c(C#N)c2ncn(Cc3ccccn3)c(=O)c2n1-c1ccccc1	-5	i	0.97	114	-0.1	-31	39
COc1ccc(CNC(=O)c2ccccc2[N+](=O)[O-])cc1	-6	i	0.93	108	-1.9	55	100
COc1ccccc1-n1nc(C)cc1N	-5	i	0.92	116	x	25	81
Cn1c(NC(=O)c2ccc(F)cc2)c(-c2ccccn2)c(=O)c2ccccc21	x	i	1.1	102	x	x	x
CCCn1c(=S)[nH]c2ccc(C(F)(F)F)cc21	-2	i	0.91	98	x	-205	78
CCOC(=O)CSc1nc(-c2ccccn2)ncc1OC	-8	i	1	62	x	32	81
Cc1cc2cc(CCNC(=O)c3cccs3)c(=O)[nH]c2cc1C	-14	x	x	97	-0.4	-17	72
COc1cccc(NC(=O)CN2C(=O)COc3ccc(Cl)cc32)c1	-2	i	1.4	103	-2.2	x	x
O=C(NCCCN1CCOCC1)C(Sc1ccccc1)c1ccccc1 (stereo not drawn)	3	i	0.96	101	-2.7	-13	101
CCCn1nc(CC(=O)O)c2ccccc2c1=O	-2	i	1	102	-1.7	70	109
CC(=O)c1ccc(NC(=O)C(=O)c2cn(CC(=O)N3CCCCC3)c3ccccc23)cc1	-8	i	0.8	100	-0.3	x	x
CCn1c(-c2ccc(N)cc2)nc2ccccc21	4	i	0.87	97	-3.3	x	x
CCCNC(=O)C(C)n1c2ccccc2c2nc(=O)cc(C)n21 (stereo not drawn)	1	i	0.98	104	-1.1	x	x
CCOC(=O)C1=C(CSc2nc3c(cc2C#N)CCC3)OC(N)=C(C#N)C1c1ccccc1 (stereo not drawn)	-7	i	0.9	100	-2.6	x	x
Cc1ccc(NC(=O)CC(NCCN2CCOCC2)C(=O)O)cc1Cl (stereo not drawn)	-3	i	1.2	99	0.2	55	99
CCOC(=O)C1=C(C)NC(=O)CC1c1cc(OC)c(OC)cc1Br (stereo not drawn)	0	i	0.99	98	x	20	113
COc1ccc(CCNC(=O)C/C(C)=N/NC(=O)c2ccc(N)cc2)cc1OC	5	i	1	100	-0.4	-9	159
SMILES	PKD1 kinase inh	HSV replic up	HSV replic up primary fold	RGS16-Gao HTS	GALR2 agonist	INS promoter inh	INS promoter inh cell count
O=[N+]([O-])c1cccc(Cl)c1CSc1ccccn1	1	i	1.2	101	x	x	x
COc1ccc(CCN2C(=O)NC(NC(=O)CC(C)C)(C(F)(F)F)C2=O)cc1OC (stereo not drawn)	-22	i	0.94	101	-0.2	7	110
Cc1cc2cc(CNC(=O)c3ccc(S(=O)(=O)N4CCCCC4)cc3)ccc2[nH]1	-8	i	1.1	100	-2.3	x	x
CC1CCN(C(=S)c2ccccc2O)CC1	5	i	1.1	95	-0.8	-45	138
CCOc1ccc(N(Cc2ccc(OC)c(OC)c2)C(=O)c2ccco2)cc1	-4	i	0.93	124	x	x	x
CCN(CC)S(=O)(=O)c1ccc(NN=C2CCN(C)CC2)c([N+](=O)[O-])c1	1	i	0.77	98	x	x	x
CCOc1ccccc1C(=O)N(CN1CCCC1=O)c1cccc(Cl)c1	-2	i	0.86	105	-1.6	x	x
c1ccc(Cc2cc[n+](Cc3ccccn3)cc2)cc1	x	i	1.2	98	x	x	x
COCC(C)NC(=O)C1CC(=O)N(c2ccc(C)cc2)C1 (stereo not drawn)	-8	i	0.94	68	-1.8	x	x
COc1ccc(Nc2nc3ccc(C)cn3c(=O)c2/C=N/O)cc1	-4	i	0.79	100	x	x	x
CC(=O)NC(CC(=O)Nc1nccs1)c1ccccc1 (stereo not drawn)	x	i	1	102	x	x	x
CN1CCN(S(=O)C23CC4CC(CC(C4)C2)C3)CC1 (stereo not drawn)	5	i	1	104	-1.8	-488	46
CC(C)C(=O)N1CCN(c2ccc([N+](=O)[O-])cc2Cl)CC1	-7	i	0.99	101	-1.7	27	66
COc1cc(C)c(S(=O)(=O)n2ccc(C)n2)cc1C	-1	i	0.95	102	-0.5	27	84
O=C(O)CSCC(=O)N1CCCCC1	2	i	0.97	109	x	x	x
Cn1ncc2c(Nc3cccc4ccccc34)ncnc21	-8	i	1.1	100	-0.7	39	105
COc1ccc(OC)c(NC(=O)C23CCC(C)(C(=O)O2)C3(C)C)c1 (stereo not drawn)	-11	i	0.95	126	-2.8	-27	77
O=C(NC1CCCCC1)c1ccc(S(=O)(=O)NCc2cccnc2)cc1	15	i	1	98	-2.8	25	132
Cc1ccc(NC(=S)N(Cc2ccco2)C2CCN(C(C)C)CC2)cc1	5	i	0.82	98	-0.8	19	134
COc1ccc(S(=O)(=O)NCc2ccc(C(=O)O)cc2)cc1	2	i	1.1	100	-2.8	23	138
COc1ccc(CC(NC(C)=O)C(=O)N2CCN(C(=O)N(C(C)C)C(C)C)CC2)cc1 (stereo not drawn)	-2	i	1	76	1.0	-47	67
O=C(Cn1c(=O)oc2cccnc21)Nc1ccccc1Oc1ccc(Cl)cc1Cl	x	i	1	105	x	x	x
CC(C)(C)c1ccc(C(=O)NC(=S)NNC(=O)c2cccs2)cc1	7	i	1.1	90	4.5	-100	48
COc1ccc(NC(=O)CNS(=O)(=O)c2ccc3nc(C)sc3c2)c(OC)c1	4	i	1	98	-1.0	-64	177
Cc1cc(C)c(NC(=O)CSc2nnc(SCC(=O)Nc3c(C)cc(C)cc3C)n2N)c(C)c1	-4	i	0.84	88	-0.7	1	76

Some of these compounds in order of SMILES length, highest first:
SMILES	PKD1 kinase inh	HSV replic up	HSV replic up primary fold	RGS16-Gao HTS	GALR2 agonist	INS promoter inh	INS promoter inh cell count
COc1ccc(N2C(=O)[C@H]3[C@@H](C2=O)C2c4ccccc4C=NN2[C@H]3C(=O)C(C)(C)C)cc1 (stereo partly drawn)	x	i	1	99	x	x	x
CCOC(=O)C1=C(CSc2nc3c(cc2C#N)CCC3)OC(N)=C(C#N)C1c1ccccc1 (stereo not drawn)	-7	i	0.9	100	-2.6	x	x
COc1ccc(CCN2C(=O)NC(NC(=O)CC(C)C)(C(F)(F)F)C2=O)cc1OC (stereo not drawn)	-22	i	0.94	101	-0.2	7	110
COc1ccc(NC(=O)CNS(=O)(=O)c2ccc3nc(C)sc3c2)c(OC)c1	4	i	1	98	-1.0	-64	177
O=C(Cn1c(=O)oc2cccnc21)Nc1ccccc1Oc1ccc(Cl)cc1Cl	x	i	1	105	x	x	x
CCOc1ccc(N(Cc2ccc(OC)c(OC)c2)C(=O)c2ccco2)cc1	-4	i	0.93	124	x	x	x
CC(C)C(=O)N1CCN(c2ccc([N+](=O)[O-])cc2Cl)CC1	-7	i	0.99	101	-1.7	27	66
O=C(NC1CCCCC1)c1ccc(S(=O)(=O)NCc2cccnc2)cc1	15	i	1	98	-2.8	25	132
CC(=O)Nc1nnc(CCS(=O)(=O)c2ccc(C)c(C)c2)s1	1	i	1	110	x	4	115
CCCNC(=O)C(C)n1c2ccccc2c2nc(=O)cc(C)n21 (stereo not drawn)	1	i	0.98	104	-1.1	x	x
COCC(C)NC(=O)C1CC(=O)N(c2ccc(C)cc2)C1 (stereo not drawn)	-8	i	0.94	68	-1.8	x	x
COc1cc(C)c(S(=O)(=O)n2ccc(C)n2)cc1C	-1	i	0.95	102	-0.5	27	84
CCCn1c(=S)[nH]c2ccc(C(F)(F)F)cc21	-2	i	0.91	98	x	-205	78
CCOC(=O)CSc1nc(-c2ccccn2)ncc1OC	-8	i	1	62	x	32	81
CCn1c(-c2ccc(N)cc2)nc2ccccc21	4	i	0.87	97	-3.3	x	x
CCCn1nc(CC(=O)O)c2ccccc2c1=O	-2	i	1	102	-1.7	70	109
CC1CCN(C(=S)c2ccccc2O)CC1	5	i	1.1	95	-0.8	-45	138
COc1ccccc1-n1nc(C)cc1N	-5	i	0.92	116	x	25	81

One compound at a time, as listed above:
O=[N+]([O-])c1cccc(Cl)c1CSc1ccccn1 is listed with PKD1 kinase inh = 1; HSV replic up = i; HSV replic up primary fold = 1.2; RGS16-Gao HTS = 101; GALR2 agonist = x; INS promoter inh = x; INS promoter inh cell count = x
CC1CCN(C(=S)c2ccccc2O)CC1 is listed with PKD1 kinase inh = 5; HSV replic up = i; HSV replic up primary fold = 1.1; RGS16-Gao HTS = 95; GALR2 agonist = -0.8; INS promoter inh = -45; INS promoter inh cell count = 138

Next part
SMILES	PKD1 kinase inh	HSV replic up	HSV replic up primary fold	RGS16-Gao HTS	GALR2 agonist	INS promoter inh	INS promoter inh cell count
CCN(CC)C(=O)COn1c(SCC(=O)N(CC)CC)nc2ccccc2c1=O	7	i	0.87	110	-2.6	38	134
CCOc1ccc(C)cc1S(=O)(=O)n1ccc(C)n1	-3	i	0.94	100	-1.9	6	113
COc1ccc(NC(=O)C(CCSC)NC(N)=O)cc1Cl (stereo not drawn)	-3	i	0.93	94	x	13	121
CC(=O)N(Cc1ccccc1C)c1cccc(C)c1C	-1	i	1.1	102	x	-41	119
CCNC(=S)NCc1ccc2c(c1)OCO2	-4	i	1	105	-0.2	x	x
Cn1c(=O)n(C)c2cc(S(=O)(=O)NCC(=O)O)ccc21	-7	i	0.98	100	x	x	x
Cc1nn(Cc2cccc(C(=O)Nn3cc([N+](=O)[O-])cn3)c2)c(C)c1[N+](=O)[O-]	11	i	0.94	100	-0.7	-17	118
CC1CCCCN1C(=O)/C=C/c1ccccc1[N+](=O)[O-] (stereo not drawn)	-6	i	0.95	110	x	x	x
COc1ccc(-n2c(SCC(=O)Nc3nccs3)nc3c(c2=O)SC(C)C3)cc1 (stereo not drawn)	-5	i	0.81	99	-0.6	-43	175
Cc1sc(NC(=O)C2C3C=CC(C3)C2C(=O)O)c(C(N)=O)c1-c1ccc(C(C)C)cc1 (stereo not drawn)	-1	i	1	81	-0.6	23	92
C/C(CS(=O)(=O)c1ccc(Cl)cc1)=N/NC(N)=S	-3	i	1.1	101	x	-14	76
CC/C(C)=N\Nc1nc(-c2cc3cc(OC)ccc3oc2=O)cs1	x	i	1	101	x	x	x
CCC/C(O)=N\S(=O)(=O)c1ccc(N=NN(C)C)cc1	-5	i	1	66	-1.5	50	122
COc1ccc(S(=O)(=O)N2CCN(c3ccccn3)CC2)cc1OC	-6	i	0.92	102	0.5	-4	127
Cc1cc(C)cc(NCCC#N)c1	4	i	1.2&0.97	99&94	-0.1	x	x
CSc1nnc(-c2cccs2)n1-c1ccccc1	3	i	1.2	106	-2.0	8	111
COCCCNC(=O)c1ccc2c(c1)OCO2	-14	i	0.84	101	-2.0	-27	49
CCCOc1ccc(Br)cc1/C=N/NC(=O)c1cc(OC)c(OC)c(OC)c1	0	i	0.98	98	-0.2	13	112
O=C1C2C3C=CC(C3)C2C(=O)N1/N=C/c1cn(Cc2ccc(F)cc2)c2ccccc12 (stereo not drawn)	-13	i	0.97	105	-2.6	8	122
COc1ccc2ccc(=O)oc2c1CC=C(C)C	-6	i	1	94	-0.6	38	110
CS(=O)(=O)c1ccccc1-c1nc(-c2ccc(C(F)(F)F)cc2)no1	6	i	0.78	79	1.6	9	108
Cc1csc(SCC(=O)NCc2ccc3c(c2)OCO3)n1	x	i	0.82	108	x	x	x
